PINK1 modulator = changes PINK1 expression. PINK1 immunofluorescence, high-content cytometry, 24 h. Potency, µM (titrated, usually from 76.6 µM), inactives show at the top dose activation (PINK1 increase), actives largely listed as activators. 0.2% of 410,000 active. AID 624263; active = well fitted activation curve with a large enough effect; inconclusive = small, poorly fitted or top-dose-only effect; inactive = flat fitted curve, though single readings scatter; cell line not stated here;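 also: potency is read from the fitted curve at half-maximal effect; % of control where 0% means no effect; nearly all actives have a fitted effect of over 65% in size; a mitochondrial uncoupler was the plate control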
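Compound titrations (5 concentrations, 24 h) on a stable cell line; DMSO and CCCP controls. Endpoint: fixed-cell PINK1 immunofluorescence with mitochondrial, cell and nuclear markers, scanned by microplate cytometer.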
TRPML1 inh = blocks the human TRPML1 channel; TRPML1-inducible cells, Ca2+ dye fluorescence, FDSS; active compounds read low; inhibition of EC80 agonist-evoked calcium signal; 0.02% of 390,000 active; activity change, negative = inhibition, % (test concentration not listed); Q9GZU1; in the data active means activity change below about -50%; inconclusive means about -30% to -50%; inactive means above about -30%;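 also: stimulus is agonist 54-4 at its EC80 concentration; % is scaled to controls: 0 for no effect and ±100 for the full control effect; compound concentration not given in the record; the text of the record puts the active cut at -80%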
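Tet-induced TRPML1-DL cells loaded with Ca8 no-wash calcium dye were read kinetically on FDSS. Compound addition was followed by EC80 agonist 54-4 (4 uM final); inhibition was read over 110 s.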
CtBP-E1A inh = CtBP/E1A binding inhibition; AlphaScreen GST-E1A/His-CtBP binding, 1536-well; active compounds read low; control for the full effect not named in the record; activity change, % (concentration not given with the values); 0.49% of 340,000 active; AID 651724; in the data active means activity change below about -65%; inconclusive means about -30% to -65%; inactive means above about -30%; also: % is scaled to controls: 0 for no effect and ±100 for the full control effect
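GST-E1A and His-tagged CtBP (125 nM each as 5X stock) were preincubated with pin-transferred compound for 2 h at 37 °C in the dark, then glutathione donor and nickel acceptor beads were added for 1 h before AlphaScreen reading.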
D2 ag = agonists of human D2 dopamine receptor (beta-arrestin). DiscoveRx PathHunter D2 beta-arrestin, luminescence, 90 min; 100% = 57 uM dopamine signal. activation, % (no concentration beside the values). AID 624465. 0.084% of 360,000 active; in the data active = activation above about 40%; inconclusive = about 15% to 40%; inactive = below about 15%; also: compound concentration not given in the record; the text of the record calls up to 30% inactive
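DiscoveRx PathHunter D2 beta-arrestin cells (2,100/well) attached overnight, then compound-stimulated 90 min at 37 C in HBSS/10 mM HEPES/0.1% Tween-20 buffer; beta-galactosidase complementation read by luminescence after 1 h at ambient temperature. Dopamine 57 uM final (EC100) as control.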
Six1-Eya2 inh = inhibitors of human Six1/Eya2 interaction | AlphaScreen GST-Six1/His-Eya2 binding, biochemical; active compounds read low; control for the full effect not named in the record | activity change, % (no concentration beside the values) | 0.56% of 360,000 active; in the data active = activity change below about -65%; inconclusive = about -30% to -65%; inactive = above about -30%; also: % is scaled to controls: 0 for no effect and ±100 for the full control effect
Target sequence (O00167 whole entry, looked up): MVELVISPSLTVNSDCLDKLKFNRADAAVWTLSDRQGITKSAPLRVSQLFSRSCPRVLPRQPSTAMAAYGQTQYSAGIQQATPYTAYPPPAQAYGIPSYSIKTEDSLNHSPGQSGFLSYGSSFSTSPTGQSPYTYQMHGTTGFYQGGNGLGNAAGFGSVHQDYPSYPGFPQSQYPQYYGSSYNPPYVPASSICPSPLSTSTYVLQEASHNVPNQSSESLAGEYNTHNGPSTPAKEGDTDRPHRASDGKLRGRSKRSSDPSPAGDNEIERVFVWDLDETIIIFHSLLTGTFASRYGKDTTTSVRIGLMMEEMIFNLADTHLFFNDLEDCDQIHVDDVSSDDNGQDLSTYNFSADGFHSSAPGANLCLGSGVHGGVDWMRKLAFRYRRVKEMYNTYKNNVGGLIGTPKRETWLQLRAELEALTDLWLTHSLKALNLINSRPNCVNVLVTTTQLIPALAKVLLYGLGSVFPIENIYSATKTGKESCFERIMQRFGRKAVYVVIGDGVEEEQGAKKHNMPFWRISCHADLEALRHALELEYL
Target sequence (Q15475 whole entry, looked up): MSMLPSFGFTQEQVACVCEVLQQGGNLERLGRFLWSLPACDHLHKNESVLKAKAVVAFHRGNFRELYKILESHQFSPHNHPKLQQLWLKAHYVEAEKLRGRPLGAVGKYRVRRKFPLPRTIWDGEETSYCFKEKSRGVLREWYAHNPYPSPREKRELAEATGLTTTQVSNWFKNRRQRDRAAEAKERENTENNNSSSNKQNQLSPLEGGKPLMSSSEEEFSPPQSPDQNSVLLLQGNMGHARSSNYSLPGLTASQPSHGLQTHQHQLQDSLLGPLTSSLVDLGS
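Six1/Eya2 binding was read as AlphaScreen signal after compounds were pinned into GST-Six1 plus His-tagged Eya2 (5X stock 250/500 nM) in pH 8.0 Tris/NaCl/TCEP buffer, beads added, then incubated 1 h, 37 C, dark.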
TRPML1 ag = agonists of human TRPML1 channel; activation, % (test concentration not listed); 0.12% of 410,000 active; AID 624414; Q9GZU1; TRPML1-expressing cells, Ca2+ dye fluorescence, FDSS; host cell line not named in the record; reference of the full effect not given here; in the data active = activation above about 50%; inconclusive = about 30% to 50%; inactive = below about 30%; also: 0% is about no effect; the text of the record puts the active cut at 80%
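Calcium fluorescence on an FDSS kinetic reader gave the read-out. Tet-induced TRPML1-DL cells were plated overnight, dye-loaded (Ca8 with quencher, 45-90 min, room temperature, dark), then read 110 s after compound addition, and again 110 s after 4uM final 54-4 (EC80).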
* = called active by the depositor; ? = inconclusive; . = not tested or not shown; [ ] = dose if it differs, or a comment.

SMILES | PINK1 modulator | TRPML1 inh | CtBP-E1A inh | D2 ag | Six1-Eya2 inh | TRPML1 ag
COc1ccc(NC(=O)C2CCCCN2S(=O)(=O)c2ccccc2)cc1S(=O)(=O)N1CCOCC1 (stereo not drawn) | 0.4% | 10 | -14 | 11 | -19 | -0.7
Cc1cc(-n2c(C)nc3ccccc3c2=O)ccc1NC(=O)c1cccc([N+](=O)[O-])c1C | -0.6% | 5 | . | . | . | -0.7
Cc1cc(/C=N/n2cnnc2)c(C)n1-c1ccc(OCc2ccc(Cl)cc2)cc1 | ? | 8 | -12 | -4.9 | -25 | -0.7
Cc1c(C(=O)N2CCOCC2)oc2c1-c1nn(CC(=O)NCc3cccc(F)c3)cc1CC2 | 2.8% | -8 | . | . | . | 3.3
CCOc1ccccc1C1CC(c2ccc(F)cc2)Nc2nc(N)nn21 (stereo not drawn) | 0.6% | -3 | 1 | -0.9 | -1 | 2.1
CCCCCCN(CCCCCC)C(=O)Cc1c(-c2ccc(F)cc2)[nH]c2ccccc12 | 0.2% | -8 | 4 | -3.1 | 0 | 0.2
Cc1ccc(CN2CCSc3ccc(C(=O)NCC4CCCO4)cc32)cc1 (stereo not drawn) | 1.0% | 2 | -5 | 0.6 | -12 | -0.9
CCC(C)(C)n1nnnc1CN1CCC(O)(c2cccc(C(F)(F)F)c2)CC1 | 20% | 16 | 4 | -1.8 | 1 | 3.5
O=C(Nc1ccc2c(c1)OCO2)c1ccc(Cl)nc1 | -0.4% | -4 | -1 | -3.5 | 6 | 1.1
N#CCc1nn(-c2ccccc2)c2ncnc(N)c12 | 0.3% | 9 | -1 | -1.1 | -17 | -0.7
CC(=O)c1ccc(NC(=O)CCc2c(C)nn(-c3ccc4nncn4n3)c2C)cc1 | 7.5% | 9 | . | . | . | 1.1
COc1ccccc1-n1cnc2cc(C(=O)NCC3CCCO3)ccc21 (stereo not drawn) | 3.1% | -2 | -1 | -3.4 | -4 | 0.2
CN(C(=O)COC(=O)CNC(=O)c1sc2ccccc2c1Cl)C1CCS(=O)(=O)C1 (stereo not drawn) | 1.1% | -1 | 1 | -3.6 | -12 | 0.0
COc1ccc(N(C(=O)c2cccc([N+](=O)[O-])c2)S(=O)(=O)c2cccs2)cc1 | -0.9% | 13 | -16 | 6.0 | -2 | -0.4
CCOc1ccc(S(=O)(=O)N2CCCCC2)cc1NC(=O)CN1C(=O)NC(CC)(c2ccccc2)C1=O (stereo not drawn) | 1.4% | -8 | -2 | -1.3 | -8 | 1.8

Random excerpt: 3 compounds from above.
SMILES | PINK1 modulator | TRPML1 inh | CtBP-E1A inh | D2 ag | Six1-Eya2 inh | TRPML1 ag
Cc1cc(/C=N/n2cnnc2)c(C)n1-c1ccc(OCc2ccc(Cl)cc2)cc1 | ? | 8 | -12 | -4.9 | -25 | -0.7
COc1ccc(NC(=O)C2CCCCN2S(=O)(=O)c2ccccc2)cc1S(=O)(=O)N1CCOCC1 (stereo not drawn) | 0.4% | 10 | -14 | 11 | -19 | -0.7
N#CCc1nn(-c2ccccc2)c2ncnc(N)c12 | 0.3% | 9 | -1 | -1.1 | -17 | -0.7

The main list resumes with the two entries that preceded the break.
SMILES | PINK1 modulator | TRPML1 inh | CtBP-E1A inh | D2 ag | Six1-Eya2 inh | TRPML1 ag
COc1ccc(N(C(=O)c2cccc([N+](=O)[O-])c2)S(=O)(=O)c2cccs2)cc1 | -0.9% | 13 | -16 | 6.0 | -2 | -0.4
CCOc1ccc(S(=O)(=O)N2CCCCC2)cc1NC(=O)CN1C(=O)NC(CC)(c2ccccc2)C1=O (stereo not drawn) | 1.4% | -8 | -2 | -1.3 | -8 | 1.8
CC1=Nc2cc(C(=O)O)ccc2Sc2ccc(C)cc21 | 0.8% | 5 | 9 | -4.4 | 2 | 0.3
COc1ccc(NC(=O)CSc2nnc(Cc3cccn3C)n2-c2ccc(OC)cc2)cc1 | -0.3% | -15 | -4 | -0.3 | -8 | 1.0
Cn1c2ccccc2c(=O)c2c(=O)n(C3CCCCCC3)c(C3CCCCC3)nc21 | 1.9% | 30 | 1 | -3.0 | 2 | 5.8
Cn1cc(Cl)c(C(=O)OCC(=O)c2ccccc2)n1 | 2.7% | -5 | -2 | -3.0 | 0 | -0.1
Cc1nc(N)[nH]c(=O)c1CCCNc1ccc([N+](=O)[O-])cc1 | 0.0% | -5 | 0 | -5.0 | -4 | -0.2
CCc1ccc(OCC2NCCc3cc(OC)c(OC)cc32)cc1 (stereo not drawn) | -1.3% | -2 | . | -0.9 | -7 | 2.4
Cc1ccc(S(=O)(=O)NCC(=O)N(CC(=O)NCC2CCCO2)Cc2ccccc2Cl)cc1 (stereo not drawn) | 0.5% | -10 | 0 | -5.2 | -19 | -1.2
Cc1cccc(-n2c(SCC(=O)N3CC(=O)Nc4ccccc43)nc3ccccc3c2=O)c1C | 2.8% | 5 | . | -0.9 | -2 | 3.2
O=C(CNC(=O)c1ccc(Br)o1)NCC1CCCO1 (stereo not drawn) | 2.5% | 10 | 4 | -2.5 | 1 | 0.6
CCc1ccc(-c2csc3ncn(CC(=O)N4CCOCC4)c(=O)c23)cc1 | -2.4% | -1 | -1 | -0.7 | 3 | 2.7
Cc1ccc(N2CCN(c3ncnc4onc(-c5ccc(F)cc5)c34)CC2)c(C)c1 | 6.3% | 15 | . | . | . | 2.6
O=C(Nc1ccc(F)cc1)Nc1ccccc1C(=O)NCCN1CCNC1=O | -0.6% | -12 | 9 | -0.3 | 2 | -0.3
COC(=O)[C@@H]1C[C@H]1[C@@H](NC(=O)c1cc(C)on1)c1ccccc1 | 0.8% | 15 | 4 | -2.8 | 0 | -0.8
COc1ccc(-c2cn3c(C)c(C(=O)NC(C)C)sc3n2)cc1 | 5.1% | -4 | -6 | -1.9 | -8 | -0.3
CCOc1ccc(C(=O)OCC(=O)N2CCCC2)cc1 | -0.7% | 55 | -14 | -4.5 | -1 | -0.3
O=C(NCc1ccncc1)C1Cc2c(-c3ccc4c(c3)OCO4)ccnc2O1 (stereo not drawn) | 8.5% | . | -9 | -3.0 | -8 | -0.6
CCOC1Cc2ccccc2N(C(N)=O)c2ccccc21 (stereo not drawn) | -1.0%[38.3 µM] | 0 | 5 | -1.4 | 0 | 0.5
COCC(=O)Nc1cc(C(=O)OC)cc(C(=O)OC)c1 | 1.0% | -3 | -4 | -0.4 | 4 | 0.7
O=C(Cc1c(F)cccc1Cl)Nc1ccon1 | 7.9µM* | 8 | 1 | -0.6 | 3 | 0.7
COc1ccc(-n2c(SCc3ccc([N+](=O)[O-])cc3)nnc2-c2ccccc2)cc1 | 0.9% | -19 | 0 | -2.2 | -25 | 0.5
CC1(C)Cc2c(sc3nc(SCC(=O)O)nc(N)c23)CO1 | 2.6% | 6 | 9 | 3.3 | 13 | -0.1
COc1cccc(NC(=O)[C@@H]2CCC(=O)N2C2OC(=O)c3ccccc32)c1 (stereo partly drawn) | 0.7% | . | -2 | -1.2 | 5 | .
CC(=O)Nc1cccc(N2C(=O)CC(N3CCC(C(=O)N4CCCCC4)CC3)C2=O)c1 (stereo not drawn) | 0.8% | 1 | -3 | -1.0 | 15 | -0.7
Cc1cccc(C)c1-n1nnnc1C(c1ccnc2ccccc12)N1CCN(C(=O)OCc2ccccc2)CC1 (stereo not drawn) | -0.8% | . | 2 | . | -3 | -0.8
N#C/C(=C\c1ccc(OCc2ccc(Cl)cc2Cl)cc1)c1nc2ccccc2[nH]1 | 2.4% | -16 | . | . | . | 2.6
O=C(Nc1ccccc1N1CCN(C(=O)c2ccccc2)CC1)c1cccc(Cl)c1 | -1.0% | 67 | 0 | 1.3 | -7 | -0.2
CC(C(=O)N1CCCCC1)N(C)CC(=O)Nc1ccc(Cl)cc1 (stereo not drawn) | -1.0% | 13 | . | -3.9 | -6 | -0.2
CCCn1cc(CN2CCC(n3nccc3NC(=O)c3ccccc3)CC2)c(C)n1 | -1.6% | 7 | 5 | -1.8 | 4 | -0.3
Cc1ccc(SCC(=O)OCC(=O)NC(C)c2ccc(F)cc2)cc1 (stereo not drawn) | -1.1% | 43 | 3 | 5.6 | 3 | 1.6
O=C(CCc1ccc(S(=O)(=O)NCCc2ccccc2)cc1)Nc1ccc2c(c1)OCO2 | -0.5%[38.3 µM] | 8 | -14 | 0.3 | -8 | -0.1

Structures listed so far that have two or more sulfur atoms:
SMILES | PINK1 modulator | TRPML1 inh | CtBP-E1A inh | D2 ag | Six1-Eya2 inh | TRPML1 ag
COc1ccc(NC(=O)C2CCCCN2S(=O)(=O)c2ccccc2)cc1S(=O)(=O)N1CCOCC1 (stereo not drawn) | 0.4% | 10 | -14 | 11 | -19 | -0.7
CN(C(=O)COC(=O)CNC(=O)c1sc2ccccc2c1Cl)C1CCS(=O)(=O)C1 (stereo not drawn) | 1.1% | -1 | 1 | -3.6 | -12 | 0.0
COc1ccc(N(C(=O)c2cccc([N+](=O)[O-])c2)S(=O)(=O)c2cccs2)cc1 | -0.9% | 13 | -16 | 6.0 | -2 | -0.4
CC1(C)Cc2c(sc3nc(SCC(=O)O)nc(N)c23)CO1 | 2.6% | 6 | 9 | 3.3 | 13 | -0.1

(list continues)
SMILES | PINK1 modulator | TRPML1 inh | CtBP-E1A inh | D2 ag | Six1-Eya2 inh | TRPML1 ag
CCOC(=O)Cn1c(S(=O)(=O)Cc2ccccc2Cl)nc(-c2ccccc2)c1-c1ccccc1 | ? | 22 | 2 | -1.8 | -10 | 3.7
COc1cccc(-c2nc(CSCC(=O)NCC3CCCO3)c(C)o2)c1 (stereo not drawn) | 1.4% | -11 | -1 | -1.3 | 2 | 0.9
CCOc1cc(C(=O)Nc2ccc(F)cc2)cc(Br)c1OC | -0.7% | 32 | 3 | 2.3 | 6 | -0.4
O=c1oc2ccccc2c(=O)c2ccccc12 | 0.9% | 4 | 6 | 1.1 | 2 | -0.7
CCOC(=O)N1CCC(N2CCCC(C(=O)c3ccc4cc(OC)ccc4c3)C2)CC1 (stereo not drawn) | 3.6% | -5 | -17 | -2.5 | -12 | 0.0
CCN(CC)S(=O)(=O)c1ccc(C(=O)NCCSc2c[nH]c3ccccc23)cc1 | 1.3% | -13 | 0 | 7.1 | -3 | 1.2
Cc1cc(=O)oc2c(C)c(OCC(=O)NCCCN3CCCC3=O)ccc12 | 1.3% | -6 | 1 | -1.4 | 0 | 0.9
COc1ccc(CC(=O)Nc2ccc(-c3csc(C)n3)cc2)cc1 | -0.4% | -6 | -3 | -4.3 | -6 | -0.7
O=S(=O)(c1ccccc1)c1nc(-c2ccc(Cl)cc2)oc1NCCCN1CCOCC1 | -1.2% | 14 | -6 | -3.8 | -14 | 0.7
O=C(c1ccc(S(=O)(=O)Nc2ccccc2F)cc1)N1CCCCCC1 | -0.2% | 11 | 9 | 1.2 | -2 | -0.4
Cc1cc(-c2ccccc2)nc2cc(C(=O)OC(C)C)nn12 | 0.8% | -2 | 6 | 2.9 | 7 | 0.3
Cn1cc(CN2CCN(c3ccccc3)CC2)c2ccccc21 | 17%[38.3 µM] | 9 | ? | 7.3 | ? | 0.2
CC(C)CN(C(=O)COC(=O)CCSc1ccc(Cl)cc1)c1c(N)n(Cc2ccccc2)c(=O)[nH]c1=O | 0.3% | -9 | 3 | -3.1 | 3 | -0.3

Screening results deposited in PubChem BioAssay by National Center for Advancing Translational Sciences (NCATS).
